# Rce1 inhib – yeast Ras-converting enzyme inhibition; calls only; hit rate 0.27% among 290,000; yeast membranes, quenched prenylated peptide cleavage fluorescence; Q03530;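 active means fall in fluorescence gain of 50% or more versus controls, with final raw signal at or below 3038400; inconclusive means same 50% fall but final raw signal above 3038400; inactive means fall in fluorescence gain under 50%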;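 further: plate controls were neutral control wells for no effect and wells lacking membranes for full effect; tested at 10 µM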
# Target sequence (Q03530 whole entry, looked up): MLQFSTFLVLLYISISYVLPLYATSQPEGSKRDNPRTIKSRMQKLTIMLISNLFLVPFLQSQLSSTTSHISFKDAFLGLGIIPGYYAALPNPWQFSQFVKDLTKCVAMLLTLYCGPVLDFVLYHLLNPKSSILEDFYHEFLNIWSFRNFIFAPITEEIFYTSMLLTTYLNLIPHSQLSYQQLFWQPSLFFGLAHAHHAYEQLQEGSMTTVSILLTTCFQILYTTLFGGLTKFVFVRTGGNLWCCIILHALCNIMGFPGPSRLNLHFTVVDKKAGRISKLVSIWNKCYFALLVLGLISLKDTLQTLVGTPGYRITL
# UUG fidelity – yeast start codon fidelity modulation; S. cerevisiae UUG-firefly luciferase reporter, luminescence/redox ratio; activity score, % at 18.7 µM; hit rate 0.13% among 350,000; AID 602363;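 active means replicate mean at a twofold rise or more, about +100% in these data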;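 further: firefly luciferase made from a UUG start codon reports start codon fidelity; reporter light over untreated wells divided by growth signal over untreated wells; some hits fall short of that in this replicate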
# PABP polyA inh – blocks human PABP binding to poly(A) RNA. fluorescence polarization. inhibition, % at 35 µM. P11940. AID 2014. hit rate 1% among 290,000;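 active means 50% or more with normal probe brightness, or confirmed in later tests; inconclusive means above 50% with abnormal brightness, or retests that disagree; inactive means below 50% or failed in later tests; about a fifth of its hits are not listed in these tables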;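 further: calls also rest on retests at 20 µM and on dose response follow-up; controls were probe without protein and protein plus probe with vehicle; some compounds called inactive have numbers as strong as hits; many hits fall short of the cut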
# eIF4H FP inh – inhibitors of RNA binding by human eIF4H. Q15056. inhibition, % at 35 µM. eIF4H fluorescence polarization binding assay. hit rate 0.94% among 290,000;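 active means 50% or more with normal probe brightness, or confirmed in later tests; inconclusive means above 50% with abnormal brightness, or retests that disagree; inactive means below 50% or failed in later tests; about a fifth of its hits are not listed in these tables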;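 further: calls also rest on retests at 20 µM and on dose response follow-up; 0% = protein and probe with vehicle and 100% = probe without protein; strong numbers were not always called active; many hits fall short of the cut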
# MT1-MMP act inh – MT1-MMP (human) activation inhibition. P50281. HT1080 RFP-PRO-GFP cells, GFP/RFP ratio fluorescence, overnight; percent of plate control window, DMSO zero. GFP/RFP ratio change, % at 20 µM. hit rate 0.061% among 360,000. AID 651647;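 active means GFP/RFP ratio change of at least 30% with cell ATP level not reduced by more than half and red fluorescence within 50% of control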; further: strong numbers were not always called active
#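 Assay system: HT1080 RFP-PRO-GFP cells. Benchmarks: DMSO vehicle wells and RFP-L50D-GFP reporter cell wells. Times: overnight cell settling, then overnight compound exposure, 37 °C, 5% CO2. Compound: 20 µM single dose, 1% DMSO. Read-out basis: GFP/RFP fluorescence ratio.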
# HIV Env fusion – inhibitors of HIV Env-mediated cell fusion; HeLa-JRFL Env/CEM21 cell fusion, luciferase; inhibition, % at 12.3 µM; hit rate 1.1% among 360,000; AID 651610;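 active means mean replicate inhibition score of at least 50 and every replicate individually at or above 50; inconclusive means only one of the two criteria met; inactive means mean below 50 and not all replicates reaching 50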;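 further: 0% = plate neutral controls and 100% = maraviroc near 300 nM; one replicate is shown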
# CSC inhib – blocks cancer stem cells; cancer stem cell-like cells viability, luminescence; inhibition, % at 7.5 µM; hit rate 1.1% among 300,000;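 active means mean at 75% or more and at least half the replicates too; inconclusive means mean and replicates disagree; tested in HMLE shEcad cells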;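 further: 0% = median of negative and 100% = median of positive control wells; the first replicate is given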
# eIF4H FP inh retest – further read-out of eIF4H FP inh, marked with its call; inhibition, %; compound at 20 µM; confirmation average;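 mean of two retest wells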
# PABP polyA inh retest – second read-out of PABP polyA inh, no call of its own (marks repeat the call); inhibition, %; compound at 20 µM; confirmation repeats;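 mean of two retest wells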
# MT1-MMP act inh RFP – recorded beside MT1-MMP act inh, whose call it bears; RFP signal change, %; measured here: RFP expression control read;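 0 = vehicle wells; hits needed this value within 50% of zero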
# An asterisk follows results filed as active; i = inactive; ? = inconclusive; nt = no result given; + = active, no number.
SMILES,Rce1 inhib,UUG fidelity,PABP polyA inh,eIF4H FP inh,MT1-MMP act inh,MT1-MMP act inh RFP,HIV Env fusion,CSC inhib,others
Cc1cn(C2OC(COC(=O)c3ccccc3)C(O)C2O)c(=O)[nH]c1=O (centres undefined),i,-13,-10,-15,5,1,nt,29,
OCCNCCNCc1ccc(-c2ccccc2)cc1,i,nt,2,4,nt,nt,23,12,
NC(=O)C1CCN(C(=O)c2ccc3c(=O)n(Cc4ccco4)c(SCC(=O)c4ccc(F)cc4)nc3c2)CC1,i,nt,-15,-14,nt,nt,nt,-15,
CN(C)C(C)(C)/C=C/C(O)(c1ccccc1)c1ccccc1,i,-8,-14,2,-3,-1,-5,nt,
O=C(CCn1cnc2ccccc21)N/N=C/c1ccccc1O,i,-20,5,4,2,1,4,-1,
COC(=O)CC(=O)CSc1nc(C)cc(C)c1C#N,i,-13,18,21,6,3,-13,-9,
CCOc1cc(N2CCOCC2)c(OCC)cc1NC(=O)C(C)C,i,7,-10,4,4,6,14,-14,
CCOC(=O)N=Nc1c(O)n(CC)c2ccccc12,i,nt,2,-13,1,3,-4,-8,
CSCCC(NC(=O)COc1ccccc1)C(=O)N1CCN(c2ccccc2F)CC1 (centres undefined),i,-8,4,2,2,2,19,3,
COc1cc(/C=N/NC(=O)CNc2n[nH]c(=O)[nH]c2=O)ccc1OCc1ccccc1,i,nt,-6,-10,1,2,-6,-6,
O=C(NCCc1c[nH]c2ccccc12)c1cccc(S(=O)(=O)Nc2ccccc2Cl)c1,i,nt,-6,-5,1,2,22,11,
NC(=O)COc1c(-c2ccc(Br)o2)oc2ccccc2c1=O,i,-6,8,-6,-17,-6,nt,0,
CCOC(=O)CNC(=S)N(Cc1ccccc1)Cc1cccs1,i,-17,-22,0,1,1,5,-4,
O=C(NC1CC1)C1C2C3C4CC5C3C5C4C12 (centres undefined),i,-13,0,-1,3,1,nt,-4,
Cc1ccccc1Cn1c(CN2CCc3ccccc3C2)nc2c1c(=O)n(C)c(=O)n2C,i,-13,1,-3,-1,-4,nt,nt,
O=C(O)CSc1ncn[nH]1,i,-15,-4,3,4,6,nt,-5,
COc1ccc2[nH]c3c(=O)n(CCCN4CCOCC4)cnc3c2c1,i,-8,-9,18,4,6,5,-10,
Cc1ccc(Cl)c2sc(NC(=O)C3CC3)nc12,i,-18,0,7,0,0,16,-9,
COc1cc(C(=O)N/C(=C\c2cn(C)c3ccccc23)C(=O)NCCCO)cc(OC)c1OC,i,1,9,1,1,1,6,-11,
COC(=O)C(C)Oc1ccc(-c2nccc(-c3ccc(F)cc3)n2)cc1 (centres undefined),i,-8,0,2,2,-3,1,-17,
COC(=O)C(C(=O)OC)c1ncc(C(F)(F)F)cc1Cl,i,nt,-10,-8,3,-3,3,-4,
O=c1[nH]c2ccccc2nc1CCc1ccccc1,i,nt,3,-2,-4,-2,-20,7,
O=C(O)COCCN1CCN(C(c2ccccc2)c2ccc(Cl)cc2)CC1 (centres undefined),i,-10,46,2,-6,3,nt,-16,
COc1ccc(S(=O)(=O)N(C)c2ccc(C(=O)NCc3ccncc3)cc2)cc1,i,-21,3,3,-26,-18,-9,-5,
N#Cc1c(-c2ccncc2)c2c([nH]c1=O)-c1ccccc1OC2,i,nt,6,10,nt,nt,4,6,
CCOc1ccccc1CNC(=O)C1CCN(C(=O)N2CC(C)Oc3ccc(C)cc32)CC1 (centres undefined),i,2,-6,-4,7,-10,-16,-10,
CCOC(=O)C(NCCCCl)c1ccccc1 (centres undefined),i,nt,17,-2,2,3,nt,-11,
CC(C)(C)n1nnnc1C(c1ccc(Cl)cc1)N1CCCc2ccccc21 (centres undefined),i,-22,5,-2,-29,-15,39,13,
Cc1ccc(C(=O)c2c3ccc(N)cc3nn2CCC(N)=O)cc1,i,-15,-4,4,1,5,2,-10,
Cc1c(NC(=O)C2CCCN2C(=O)c2cccs2)c(=O)n(-c2ccccc2)n1C (centres undefined),i,-4,nt,nt,-7,1,nt,-14,
COC(=O)CSc1nc(COc2ccccc2)nc2ccccc12,i,-6,7,7,-1,6,11,2,
CCCCCCCNC(=O)C1(CC2CC(c3ccccc3)=NO2)CCN(C(=O)c2ccccc2)CC1 (centres undefined),nt,-5,nt,nt,-2,-6,8,19,
CCOC(=O)Cc1cnc(NC(=O)CSc2nc(C(C)C)cc(=O)[nH]2)s1,i,-2,10,-9,0,2,10,38,
CCOC(=O)c1cn(CC)c2ccc(S(=O)(=O)N3CCC(C)CC3)cc2c1=O,i,-3,-2,4,1,1,3,nt,
CN1CCN(S(=O)(=O)c2ccc(SCCOc3ccccc3)nc2)CC1,i,-15,-5,5,9,0,-10,-3,
COCCCNC(=O)Cn1c(=O)n(CC(=O)N2CCCCC2)c(=O)c2sccc21,i,-15,5,0,0,1,-1,-9,
COCCNC(=O)CSc1nc2ccc(N3CCOCC3)cc2c(=O)n1CCc1ccccc1,i,-5,25,12,4,2,-15,-5,
Cc1cc(NC(=O)C2=C(O)c3ccccc3S(=O)(=O)N2C)no1,i,-10,7,-9,-2,-1,-15,-9,
O=c1c2c3c(sc2nc2n1CCCCC2)C(O)CCC3 (centres undefined),i,-12,3,13,1,0,-19,7,
COc1ccc(-c2ccc(=O)n(CC(=O)Nc3nnc(C(C)C)s3)n2)cc1OC,i,-11,-16,5,6,5,-68,-1,
Cc1c(Cl)cccc1NC(=O)CCN1CCC(C(N)=O)CC1,i,-14,-5,4,1,4,8,-15,
CCNc1ccc2noc3c2c1C(=O)c1ccccc1-3,i,nt,4,?,-100,71,nt,55,
O=C(Oc1c(Cl)cc(Cl)c2cccnc12)N1CCOCC1,i,-14,-5,-3,4,3,-34,-14,
CCNc1nc(C)nc2c1oc1ccccc12,i,-15,-2,-1,6,2,4,-10,
O=C1CCCC(=O)C1C(c1ccc(Cl)cc1)C1C(=O)CCCC1=O,nt,-1,nt,nt,2,3,-7,-18,

# Retrieved one by one from above, 2 records:
SMILES,Rce1 inhib,UUG fidelity,PABP polyA inh,eIF4H FP inh,MT1-MMP act inh,MT1-MMP act inh RFP,HIV Env fusion,CSC inhib,others
CC(C)(C)n1nnnc1C(c1ccc(Cl)cc1)N1CCCc2ccccc21 (centres undefined),i,-22,5,-2,-29,-15,39,13,
COc1ccc(-c2ccc(=O)n(CC(=O)Nc3nnc(C(C)C)s3)n2)cc1OC,i,-11,-16,5,6,5,-68,-1,

# New compounds follow.
SMILES,Rce1 inhib,UUG fidelity,PABP polyA inh,eIF4H FP inh,MT1-MMP act inh,MT1-MMP act inh RFP,HIV Env fusion,CSC inhib,others
Cc1ccc(NS(=O)(=O)c2ccc(Cl)c(C(=O)Nc3ccccc3-c3nc4ccccc4[nH]3)c2)cc1C,i,nt,-2,-14,-12,-16,38,+,
CSc1sccc1/C=N/O,i,nt,-10,-8,1,4,6,-7,
CC(=O)Nc1ccc(OCC(=O)NCCc2ccccc2)cc1,i,-5,10,55,0,0,-10,25,eIF4H FP inh retest=-1;PABP polyA inh retest=-3
CCc1ccc(NC(=O)C2=CC(c3ccc(OC)cc3)=NS(=O)(=O)N2C)cc1,i,4,4,6,5,-9,16,11,
CSc1cccc(NC(=O)/C=C/c2ccccc2)c1,i,-15,0,-6,-1,-2,-154,25,
COc1ccc(CC(=O)OCC(=O)Nc2cccnc2Cl)cc1OC,i,-9,15,2,-1,2,5,-2,
NS(=O)(=O)c1cccc(NC(=O)CSc2nc3ccccc3n2-c2ccccc2)c1,i,nt,6,2,-2,-6,5,2,
Cc1cc(C)c[n+](-c2nc3ccccc3nc2[N-]S(=O)(=O)c2cccs2)c1,i,nt,-3,18,2,8,6,-12,
CCC(Oc1ccc(C)cc1)C(=O)Nc1ccccc1C(=O)N1CCOCC1 (centres undefined),i,-3,0,-4,-1,-1,-31,-11,
O=C(COC(=O)/C=C/c1cccc(F)c1)Nc1ncccn1,i,-18,22,28,0,2,7,nt,
Cc1occc1C(=O)Nc1ccccc1C#N,i,-13,-4,2,3,1,-5,-5,
Cn1cc(CCC(=O)N2CCCC(C(=O)c3cccc4ccccc34)C2)cn1 (centres undefined),i,-8,-6,0,-3,-4,9,-6,
CC(=O)Nc1cccc(N/C(N)=N/c2nc(C)cc(C)n2)c1,i,nt,-1,-4,-5,-1,9,-2,
O=C1C2C3C=CC(C4CC34)C2C(=O)N1/N=C/c1ccc(-c2ccc([N+](=O)[O-])cc2)o1 (centres undefined),i,1,-5,-2,2,2,5,57,
C=CCn1c(SC(C)C(=O)Nc2ccc(F)c(F)c2F)nnc1C1CC1 (centres undefined),i,-18,nt,nt,1,-4,nt,-19,
CN(C)C(=O)N1CCN(S(=O)(=O)c2ccc3ccccc3c2)CC1,i,-4,-1,-4,7,-3,-7,-7,
O=C(NC(Cc1ccccc1)C(=O)O)c1cccnc1Cl (centres undefined),i,-10,-1,-2,0,4,17,-11,
COc1nc(-c2ccccc2)ncc1S(=O)(=O)c1ccccc1,i,nt,-7,-10,-5,-2,14,6,
O=C1CCCN1CC(O)CS(=O)(=O)Cc1ccc(Cl)cc1Cl (centres undefined),i,-12,9,19,-3,-3,3,2,
Cc1ccc(C(=O)NCCc2nnc3ccc(NCc4ccc5c(c4)OCO5)nn23)cc1,i,-17,-4,-14,0,2,2,3,
COc1cc(C(=O)Nc2ccc(S(=O)(=O)N3CCCCC3C)cc2)cc(OC)c1OC (centres undefined),i,5,59,-3,16,-23,10,16,eIF4H FP inh retest=-6;PABP polyA inh retest=8
Cc1cccc(C(=O)Nc2ccc(NC(=O)c3cccc(C)c3)cc2)c1,nt,6,nt,nt,1,2,8,nt,
Cc1nnc(SCC(=O)Nc2ccc3c(c2)COC3=O)n1-c1ccccc1,i,-1,2,9,1,8,2,-7,
CCCn1nc(C(=O)NNC(=O)Cc2ccc(S(=O)(=O)N3CCOCC3)s2)c2ccccc2c1=O,i,nt,nt,nt,-2,1,20,-2,
CCSC1=C(C#N)C(c2cccc(O)c2)CC(=O)N1 (centres undefined),i,-31,-1,1,-2,-1,13,0,
Cc1ccc(SC[C@H](CC(C)C)N2CCN(C)CCC2=O)cc1,i,-1,2,11,-5,-5,-9,nt,
CCOc1ccc(NC(=O)C2CCN(c3nnnn3-c3ccccc3)CC2)cc1,i,0,5,2,1,4,-19,nt,
CCCN1CCC(N(C)CCc2ccc(OC)c(OC)c2)CC1,i,-13,22,-4,3,8,nt,-1,
CCC(C)[C@H](NC(=O)N1CCn2c1nc1ccccc12)C(=O)NCCc1ccccc1 (some centres undefined),i,-20,nt,nt,-8,-2,9,4,
CCC(C)Nc1nc2c(c(=O)n(C)c(=O)n2C)n1Cc1ccc(F)cc1 (centres undefined),i,-6,-1,0,-8,-2,nt,-11,
COc1cc(C(=O)NCC(=O)OCCN2C(=O)c3ccccc3C2=O)cc(OC)c1OC,i,nt,-6,2,0,2,1,nt,
Cc1ccc(C)c(NC(=S)NC23CN4CN(CN(C4)C2)C3)c1,i,nt,-8,-2,-1,3,3,-4,
CC(=O)c1ccc(S(=O)(=O)Nc2ccc(-c3ccc4nnc(C)n4n3)cc2)cc1,i,nt,2,38,4,8,8,nt,
Clc1ccc(-c2cnc3n2CCC3)cc1,i,1,-4,-16,0,-3,-73,-4,
CC(C)(C)n1c(O)c2ccc(C(=O)N=NC(=O)c3ccccc3)cc2c1O,i,-6,-12,0,4,1,-4,1,
COC(=O)C1CCN(S(=O)(=O)CCNC(=O)c2ccc3c(c2)OCO3)CC1,i,-5,nt,nt,-3,-1,4,nt,

# Screening results as filed in PubChem.
